High-throughput results deposited in PubChem by ICCB-Longwood Screening Facility, Harvard Medical School.
MbtI inh – MbtI salicylate synthase inhibition; P9WFX0; purified MbtI enzyme, fluorescence intensity read-out; inhibition, %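 (about 17 µg/mL by stock and volumes)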; hit rate 0.89% among 100,000;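 active = above 50% in both replicates, above 80% if mildly self-fluorescent; inactive = the rest, strongly fluorescent compounds included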;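 also: 0% = mean of negative and 100% = mean of positive controls; one replicate is shown; some compounds called inactive have numbers as strong as hits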
Target sequence (P9WFX0 whole entry, looked up): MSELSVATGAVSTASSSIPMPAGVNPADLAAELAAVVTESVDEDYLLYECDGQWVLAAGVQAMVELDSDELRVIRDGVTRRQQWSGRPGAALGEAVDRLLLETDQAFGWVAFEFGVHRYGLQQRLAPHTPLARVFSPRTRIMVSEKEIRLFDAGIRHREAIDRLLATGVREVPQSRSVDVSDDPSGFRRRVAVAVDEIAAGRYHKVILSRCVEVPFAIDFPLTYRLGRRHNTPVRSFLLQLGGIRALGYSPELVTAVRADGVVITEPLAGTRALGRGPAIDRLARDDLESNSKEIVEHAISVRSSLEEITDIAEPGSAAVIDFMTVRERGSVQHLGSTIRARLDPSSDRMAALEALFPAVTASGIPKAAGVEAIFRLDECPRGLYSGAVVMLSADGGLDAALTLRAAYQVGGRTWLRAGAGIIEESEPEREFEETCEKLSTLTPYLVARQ
MenB inh – blocks the Mycobacterium tuberculosis MenB enzyme. hit rate 0.43% among 100,000. MenB enzyme assay, absorbance read-out; some hits fall short of the stated cut. P9WNP5. AID 540299. inhibition, %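 (about 12 µg/mL by stock and volumes)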;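 active = mean of two replicates above 30%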;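 also: 0% = no compound and 100% = wells with inactive enzyme; the first replicate is given; strong numbers were not always called active; inactives centre near -10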
PV pol inh – inhibitors of poliovirus RNA polymerase binding and polymerization; P03300; poliovirus polymerase elongation, fluorescence polarization; active compounds read low; % elongation, % (compound at 16.7 µg/mL); hit rate 0.66% among 150,000; in the data active = % elongation below about 90%; also: some results filed as inactive read as strong as hits
Target sequence (P03300 1749-2209 limits assumed): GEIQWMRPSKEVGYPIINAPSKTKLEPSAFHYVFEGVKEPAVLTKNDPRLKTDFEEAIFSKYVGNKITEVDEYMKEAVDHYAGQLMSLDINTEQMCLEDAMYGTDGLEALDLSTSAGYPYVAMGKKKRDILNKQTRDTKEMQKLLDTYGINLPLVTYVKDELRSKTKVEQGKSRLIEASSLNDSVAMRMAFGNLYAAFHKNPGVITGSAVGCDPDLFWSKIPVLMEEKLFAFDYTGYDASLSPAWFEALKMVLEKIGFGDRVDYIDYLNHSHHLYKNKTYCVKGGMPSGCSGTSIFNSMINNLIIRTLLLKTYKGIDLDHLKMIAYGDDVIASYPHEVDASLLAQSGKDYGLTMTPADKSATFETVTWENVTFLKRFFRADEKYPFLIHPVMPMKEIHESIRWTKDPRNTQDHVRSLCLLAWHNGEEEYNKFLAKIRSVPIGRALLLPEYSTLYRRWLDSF
PV pol inh intensity – recorded beside PV pol inh, whose call it bears; % elongation; measured here: total intensity read-out; formula for this scale not given here;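 total fluorescence in place of polarization; lower means less elongation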
Starred values were filed as active, the others as inactive; x = not tested or not shown.

Abbreviations – A = MbtI inh; B = MenB inh; C = PV pol inh; D = PV pol inh intensity
CC(C)Sc1n[nH]c(=O)n1-c1ccccc1
  A = 3	B = -14	C = 107	D = 109
O=C(Cn1nc(C(=O)O)c2ccccc2c1=O)NC1CCCC1
  A = -1	B = 7	C = 106	D = 105
Cc1ccc(N(CC(=O)Nc2ccc(C)cc2C)S(=O)(=O)c2c(C)noc2C)cc1
  A = -5	B = -20	C = 102	D = 104
O=S(=O)(c1ccc(Cl)cc1)N1CCCCC1c1cccnc1 (stereo not drawn)
  A = 5	B = -26	C = 104	D = 102
Cc1cc(C(F)(F)F)n2nc(N)nc2n1
  A = 106	B = -12	C = 108	D = 107
CC1=CC(=C(C#N)C#N)C=C(C)N1C(C)C
  A = 2	B = -6	C = 101	D = 102
Cc1cc2c(=O)n(CCOc3ccccc3)cnc2s1
  A = -17	B = 0	C = 100	D = 104
O=C1CSc2ccc(C(=O)NCCC3=CCCCC3)cc2N1
  A = 0	B = -4	C = 100	D = 95
O/N=C1/C2C3CC4C5C3C1C5C1(OCCO1)C42 (stereo not drawn)
  A = -15	B = -9	C = 100	D = 99
O=C(/C=C/c1ccco1)CC1(O)C(=O)Nc2ccccc21 (stereo not drawn)
  A = 29	B = 10	C = 95	D = 108
CC(C)COc1ccc(Br)cc1C(=O)O
  A = -7	B = 1	C = 99	D = 103
Cc1cccnc1-n1c(C)nc2ccccc2c1=O
  A = 0	B = -18	C = 99	D = 103
CC(C)NC(=O)CCCN1C(=O)c2ccccc2Sc2ncccc21
  A = -4	B = 15	C = 101	D = 102
O=C(NCc1cc(F)cc2c1OCOC2)c1ccc(Oc2cc(Cl)cc(Cl)c2)o1
  A = -8	B = -29	C = 100	D = 95
O=C(O)C1CC(c2ccc(F)cc2)=NO1 (stereo not drawn)
  A = x	B = 15	C = 84*	D = 93*
CCOC(=O)c1cccc2c1-c1ccccc1C2=O
  A = 1	B = -2	C = 100	D = 103
CCOc1cc(CNC2CC2)ccc1OC(F)F
  A = 4	B = 4	C = 108	D = 108
CC(=O)N1CCCc2cc(S(=O)(=O)Nc3ccc4c(c3)OCO4)ccc21
  A = -3	B = -34	C = 105	D = 101
Cc1cc(NC(=O)CC2CCCCC2)nc2c1c(=O)oc1ccccc12
  A = 5	B = -5	C = 102	D = 107
Cc1ccc(CNC(=O)CCc2c(C)nc3c(c2C)c(=O)n(C)c(=O)n3C)cc1
  A = -4	B = -3	C = 99	D = 103
CC(NC(=O)c1ccncc1)C1CC2CCC1C2 (stereo not drawn)
  A = 13	B = -27	C = 99	D = 88
CSc1ccc(/C=C2\CC/C(=C\c3ccc(SC)cc3)C2=O)cc1
  A = 10	B = -12	C = 105	D = 109
N#CCCC1(CCC#N)S(=O)(=O)CC(c2ccccc2)CS1(=O)=O
  A = -8	B = 5	C = 101	D = 107
O=C(/C=C/c1ccccc1)ON1C(=O)CCC1=O
  A = x	B = -14	C = 35*	D = 50*
COc1ccccc1NC(=O)C(C)Nc1ccc(C)c(Cl)c1 (stereo not drawn)
  A = -23	B = -6	C = 111	D = 108
CCC(=O)NCC(c1ccc2c(c1)OCO2)N1CCOCC1 (stereo not drawn)
  A = -12	B = -15	C = 103	D = 103
Cc1ccccc1C(=O)N1CCCCC1CO (stereo not drawn)
  A = -8	B = -25	C = 101	D = 101
CCOC(=O)N1CCN(C(=O)C2CC(c3ccc(F)cc3)=NO2)CC1 (stereo not drawn)
  A = -8	B = -14	C = 100	D = 105
C=C(C)C(=O)OCc1ccc(C#N)cc1
  A = -17	B = 4	C = 103	D = 111
COc1ccc(OC)c(CCN=C2NS(=O)(=O)C(c3ccc(C)cc3)=C2C)c1
  A = -2	B = -21	C = 105	D = 110
CN(C)C(=O)CSc1nnc(-c2ccccc2)n1-c1ccc(F)cc1
  A = -2	B = x	C = 103	D = 104
COc1ccc(S(=O)(=O)NCCN2CCNC2=O)cc1OC
  A = -2	B = 8	C = 100	D = 105
O=S(=O)(NCC1CCN(CCc2cccs2)CC1)c1cnc[nH]1
  A = -28	B = -9	C = 99	D = 102
COc1ccc(S(=O)c2ccccc2C(=O)O)cc1 (stereo not drawn)
  A = -2	B = -7	C = 104	D = 100
Cc1ccccc1NC(C)C(=O)N/N=C/c1cccs1 (stereo not drawn)
  A = -1	B = -13	C = 102	D = 103
N#Cc1cc(SCCC(=O)O)c(N2CCOCC2)cc1C#N
  A = -9	B = -10	C = 101	D = 103
FC(F)Sc1nc2ccccc2s1
  A = -10	B = -8	C = 111	D = 108
CCN(CC(=O)Nc1ccc(NC(C)=O)cc1)C(=O)c1n[nH]c(=O)c2ccccc12
  A = 21	B = 5	C = 101	D = 106
O=C(CN1CCc2ccccc21)Nc1ccc(SC(F)F)cc1
  A = -13	B = -21	C = 105	D = 104
COc1ccc(Br)cc1CN(C)C(C)C(=O)Nc1ccc2c(c1)OCO2 (stereo not drawn)
  A = 4	B = -9	C = 98	D = 104
COc1cc(NC(=O)Nc2ccccc2C)cc(OC)c1
  A = 6	B = 8	C = 102	D = 101
CC1CCCN(C(=O)c2cc(-c3ccccc3)n[nH]2)C1 (stereo not drawn)
  A = 18	B = 9	C = 101	D = 103
CC1CC(C(F)(F)F)n2ncnc2N1C(=O)CSc1nc2ccccc2o1 (stereo not drawn)
  A = x	B = -11	C = 101	D = 106
O=C1C(=O)N(CO)C(c2ccccc2)/C1=C(\O)c1ccccc1 (stereo not drawn)
  A = x	B = -27	C = 105	D = 108
COc1cccc(/C=C2\SC(N3CCC(C)CC3)=NC2=O)c1OC
  A = 36	B = 0	C = 101	D = 100
CC(C)NC(=O)/C(C#N)=C/c1ccccc1
  A = -4	B = -27	C = 101	D = 100
CC1CCCC(NC(=O)CSc2ccccc2Cl)C1C (stereo not drawn)
  A = -9	B = x	C = 101	D = 103
Cc1ccc(S(=O)(=O)NC2CCN(c3ncccn3)CC2)cc1
  A = 10	B = 2	C = 101	D = 102
CCc1cc2c(cc3c(=O)n(CC(=O)N4CC(C)CC(C)C4)nc(CC)n32)s1 (stereo not drawn)
  A = -1	B = 3	C = 101	D = 104
O=C(/C=C/c1ccccc1)NCCOc1ccccc1
  A = x	B = -16	C = 105	D = 112

Fetched by structure from the entries so far (2):
Abbreviations – A = MbtI inh; B = MenB inh; C = PV pol inh; D = PV pol inh intensity
CC(C)NC(=O)/C(C#N)=C/c1ccccc1
  A = -4	B = -27	C = 101	D = 100
Cc1ccccc1NC(C)C(=O)N/N=C/c1cccs1 (stereo not drawn)
  A = -1	B = -13	C = 102	D = 103

(listing goes on)
Abbreviations – A = MbtI inh; B = MenB inh; C = PV pol inh; D = PV pol inh intensity
CCS(=O)(=O)N1CCC(C(=O)NC2CCCCC2C)CC1 (stereo not drawn)
  A = 6	B = 10	C = 103	D = 103
O=C(Cc1c[nH]c2ccccc12)OCc1c(F)c(F)c(F)c(F)c1F
  A = -12	B = -14	C = 102	D = 107
CC(C)c1ccc2[nH]c3c(c2c1)CCCC3O (stereo not drawn)
  A = 25	B = -4	C = 101	D = 98
CC1(C)CC2CC(C)(CN2c2nc(-c3ccco3)cc(C(F)(F)F)n2)C1 (stereo not drawn)
  A = 12	B = 2	C = 100	D = 98
C#CCn1cnc2c(oc3ccccc32)c1=O
  A = 0	B = -14	C = 101	D = 101
CCCn1c(N)c(C(=O)CSc2nnc(-c3ccco3)n2-c2ccccc2)c(=O)n(C)c1=O
  A = -5	B = 2	C = 111	D = 112
CCc1ccc(N2CC34C=CC(O3)C(C(=O)O)C4C2=O)cc1 (stereo not drawn)
  A = 12	B = -287	C = 103	D = 103
CCOC(=O)c1oc2ccccc2c1COC(=O)c1ccc2c(c1)OCO2
  A = 24	B = -8	C = 107	D = 102
CCC(=O)Nc1cc(C(=O)N2CCC3(CC2)OCCO3)ccc1S(=O)(=O)c1ccc(C)cc1
  A = -1	B = -10	C = 100	D = 104
CN(C)P(=NC(=O)COc1ccc(Cl)cc1Cl)(N(C)C)N(C)C
  A = -8	B = -17	C = 102	D = 100
CCOC(=O)c1ccc2c(c1)nc(SCC(=O)C(C)(C)C)n2CC
  A = -7	B = -20	C = 102	D = 101
O=C(Nc1sc2c(c1C(=O)O)CCCC2)c1cccs1
  A = 15	B = -99	C = 98	D = 103
Cc1onc(-c2ccccc2Cl)c1C(=O)NCC12CC3CC(CC(C3)C1)C2
  A = 5	B = -11	C = 101	D = 104
Cn1c2c(c(=O)n(C)c1=O)C(Nc1nc3ccccc3s1)(C(F)(F)F)C(=O)N2 (stereo not drawn)
  A = 20	B = 2	C = 100	D = 100
NCCc1ccccn1
  A = -5	B = -30	C = 100	D = 100
CC(=O)N1CCN(C(C)=O)C2(CCCCC2)C1
  A = -9	B = -10	C = 104	D = 106
CC(O)CN1CN=C(SCc2ccc(Cl)cc2)NC1 (stereo not drawn)
  A = -3	B = -6	C = 100	D = 101
O=C1c2ccccc2S(=O)(=O)N1Cc1ccc(Cl)cc1Cl
  A = -30	B = 1	C = 103	D = 102
O=C(OCc1nnc(-c2ccccc2)o1)c1ccccc1N/C=C/C(=O)C(F)(F)F
  A = -13	B = -27	C = 104	D = 115
Cc1ccccc1N1C(=O)C(Oc2ccc(Cl)cc2)C1CNc1ccccc1 (stereo not drawn)
  A = 4	B = -25	C = 101	D = 103
O=C(c1ccc(COc2cc(Cl)ccc2Cl)o1)N1CCSCC1
  A = 0	B = -13	C = 101	D = 99
O=C1CC(N2CCN(S(=O)(=O)c3ccc(Cl)cc3)CC2)C(=O)N1c1ccccc1Cl (stereo not drawn)
  A = -4	B = -6	C = 96	D = 93
CN1C(=O)C(=Cc2cccs2)C(=O)N(C)C1=S
  A = 16	B = -9	C = 103	D = 102
CCSc1nc(N)c(NC(=O)c2ccc(OC)c(OC)c2)c(=O)[nH]1
  A = 0	B = -27	C = 105	D = 100
CCn1ncc(C2=NOC(C(=O)NCc3ccc(Cl)cc3)C2)c1C (stereo not drawn)
  A = 3	B = 1	C = 103	D = 99

A different layout for 13 compounds above:
Compound | MbtI inh | MenB inh | PV pol inh | PV pol inh intensity
CCS(=O)(=O)N1CCC(C(=O)NC2CCCCC2C)CC1 (stereo not drawn) | 6 | 10 | 103 | 103
O=C(Cc1c[nH]c2ccccc12)OCc1c(F)c(F)c(F)c(F)c1F | -12 | -14 | 102 | 107
CC(C)c1ccc2[nH]c3c(c2c1)CCCC3O (stereo not drawn) | 25 | -4 | 101 | 98
CC1(C)CC2CC(C)(CN2c2nc(-c3ccco3)cc(C(F)(F)F)n2)C1 (stereo not drawn) | 12 | 2 | 100 | 98
C#CCn1cnc2c(oc3ccccc32)c1=O | 0 | -14 | 101 | 101
CCCn1c(N)c(C(=O)CSc2nnc(-c3ccco3)n2-c2ccccc2)c(=O)n(C)c1=O | -5 | 2 | 111 | 112
CCc1ccc(N2CC34C=CC(O3)C(C(=O)O)C4C2=O)cc1 (stereo not drawn) | 12 | -287 | 103 | 103
CCOC(=O)c1oc2ccccc2c1COC(=O)c1ccc2c(c1)OCO2 | 24 | -8 | 107 | 102
CCC(=O)Nc1cc(C(=O)N2CCC3(CC2)OCCO3)ccc1S(=O)(=O)c1ccc(C)cc1 | -1 | -10 | 100 | 104
CN(C)P(=NC(=O)COc1ccc(Cl)cc1Cl)(N(C)C)N(C)C | -8 | -17 | 102 | 100
CCOC(=O)c1ccc2c(c1)nc(SCC(=O)C(C)(C)C)n2CC | -7 | -20 | 102 | 101
O=C(Nc1sc2c(c1C(=O)O)CCCC2)c1cccs1 | 15 | -99 | 98 | 103
Cc1onc(-c2ccccc2Cl)c1C(=O)NCC12CC3CC(CC(C3)C1)C2 | 5 | -11 | 101 | 104

New compounds follow.
Abbreviations – A = MbtI inh; B = MenB inh; C = PV pol inh; D = PV pol inh intensity
Cc1cc(C)cc(Sc2ccc3nnc(-c4ccccc4)n3n2)c1
  A = 10	B = 4	C = 94	D = 90
COc1ccccc1OCCNS(=O)(=O)c1ccccc1C(F)(F)F
  A = -2	B = 0	C = 105	D = 113
O=C(CCCC(=O)Nc1ccccc1)Nc1ccccc1
  A = -6	B = 11	C = 99	D = 104
CCCC(=O)Nc1ccc2nc(SCC(=O)N3CCCC3)sc2c1
  A = 5	B = 14	C = 102	D = 102
CC(NC(=O)COc1cc(=O)n(C)c2ccccc12)c1ccc2c(c1)OCCO2 (stereo not drawn)
  A = 7	B = -12	C = 100	D = 101
O=C(OCCOc1ccc(Br)cc1)c1ccc(Br)o1
  A = -3	B = -4	C = 108	D = 108
N#Cc1ccccc1OCC(=O)Nc1ccccc1
  A = x	B = -11	C = 103	D = 105
Cc1ccc(CN2CCCN(CC(N)=O)S2(=O)=O)cc1
  A = -3	B = -20	C = 101	D = 103
COc1ccccc1N1CCN(C(C)c2nc3ccccc3s2)CC1 (stereo not drawn)
  A = 0	B = -27	C = 101	D = 106
Cc1c(N2C(=O)/C(=C\c3ccc(N(C)C)cc3)N(C)C2=S)c(=O)n(-c2ccccc2)n1C
  A = 14	B = -116	C = 44	D = 241
COC(=O)c1cccc(CSc2nnc(-c3c[nH]c4ccccc34)o2)c1
  A = 9	B = -16	C = 101	D = 106
N#CCn1ccn(-c2ccc(F)c(Cl)c2)c(=O)c1=O
  A = -9	B = -13	C = 103	D = 99
CCN(Cc1ccccc1)Cc1c(C)n(C)n(-c2ccccc2)c1=O
  A = -12	B = -5	C = 103	D = 101
O=c1[nH]nc(SC(F)(F)C(F)(F)C(F)(F)F)c(=O)[nH]1
  A = 0	B = -10	C = 102	D = 102
c1ccc2sc(N3CCNCC3)nc2c1
  A = 4	B = 12	C = 104	D = 104
COC(=O)Cn1c(=NC(=O)C2CCCCC2)sc2cc(OC)ccc21
  A = 2	B = 3	C = 102	D = 103
COc1ccccc1Nc1cc(C(=O)NCCN2CCC(Cc3ccccc3)CC2)c2ccccc2n1
  A = 14	B = -21	C = 103	D = 103
